# gsp antagonist = gsp mutant antagonism | gsp-mutant cells, cAMP HTRF, 30 min; control for the full effect not named in the record | Potency, µM (doses to about 76.9 µM), for inactives: top-dose activity change, negative = inhibition, actives largely listed as inhibitors | hit rate 0.4% among 340,000; active = falling curve of any shape with a large fitted effect; inconclusive = falling curve, mostly with a smaller effect; inactive = flat or rising curve; cell line not stated here;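 also: intracellular cAMP measured with PDE inhibitor Ro 20-1724 present during compound exposure; potency is read from the fitted curve at half-maximal effect; % is scaled to controls: 0 for no effect and ±100 for the full control effect; nearly all actives have a fitted effect of over 65% in size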
#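 HTRF cAMP read-out (cAMP-d2 plus anti-cAMP antibody-K in lysis buffer, 30 min RT). Before lysis, cells are exposed to compounds with […] for 30 min at 37C in DPBS containing Ca/Mg, BSA and Tween 20.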
# ClpP mod = qHTS Assay for Activators of ClpP. ATP-dependent Clp protease proteolytic subunit (Bacillus subtilis (strain 168)), P80244. purified B. subtilis ClpP, FRET peptide cleavage, 20 min. Potency, µM (doses to about 57.5 µM), inactives show top-dose activity change, negative = active. hit rate 1.9% among 340,000. AID 651965, 2013; active = well fitted falling curve with a large enough effect; inconclusive = small, poorly fitted or top-dose-only effect; inactive = no such curve, though single readings can be large or run the other way; also: potency is read from the fitted curve at half-maximal effect; the source files actives as falling curves though it sought activators and does not explain the sign; nearly all actives have a fitted effect of over 65% in size; many hits overshoot -100%
# Target sequence (P80244 whole entry, looked up): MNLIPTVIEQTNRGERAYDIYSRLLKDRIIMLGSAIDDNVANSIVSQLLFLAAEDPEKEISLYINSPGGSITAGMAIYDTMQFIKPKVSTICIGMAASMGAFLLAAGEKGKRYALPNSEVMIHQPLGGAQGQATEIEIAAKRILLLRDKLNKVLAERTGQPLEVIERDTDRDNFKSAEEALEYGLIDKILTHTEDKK
#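 Purified B. subtilis ClpP, 10 microg/mL final in Tris/HCl pH8 with KCl, BSA, glycerol and Tween-20, cleaved an Abz/nitrotyrosine-quenched decapeptide. Fluorescence (ex 320, em 430) was read at 0 and 20 min at room temperature. Delta was normalized to 5.8 microM ADEP and DMSO/no-enzyme controls.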
# TRPML1 agonist = agonists of human TRPML1 channel; activation, % (test concentration not listed); hit rate 0.12% among 410,000; TRPML1-expressing cells, Ca2+ dye fluorescence, FDSS; host cell line not named in the record; reference of the full effect not given here; Q9GZU1; in the data active = activation above about 50%; inconclusive = about 30% to 50%; inactive = below about 30%; also: 0% is about no effect; the text of the record puts the active cut at 80%
# Target sequence (Q9GZU1 whole entry, looked up): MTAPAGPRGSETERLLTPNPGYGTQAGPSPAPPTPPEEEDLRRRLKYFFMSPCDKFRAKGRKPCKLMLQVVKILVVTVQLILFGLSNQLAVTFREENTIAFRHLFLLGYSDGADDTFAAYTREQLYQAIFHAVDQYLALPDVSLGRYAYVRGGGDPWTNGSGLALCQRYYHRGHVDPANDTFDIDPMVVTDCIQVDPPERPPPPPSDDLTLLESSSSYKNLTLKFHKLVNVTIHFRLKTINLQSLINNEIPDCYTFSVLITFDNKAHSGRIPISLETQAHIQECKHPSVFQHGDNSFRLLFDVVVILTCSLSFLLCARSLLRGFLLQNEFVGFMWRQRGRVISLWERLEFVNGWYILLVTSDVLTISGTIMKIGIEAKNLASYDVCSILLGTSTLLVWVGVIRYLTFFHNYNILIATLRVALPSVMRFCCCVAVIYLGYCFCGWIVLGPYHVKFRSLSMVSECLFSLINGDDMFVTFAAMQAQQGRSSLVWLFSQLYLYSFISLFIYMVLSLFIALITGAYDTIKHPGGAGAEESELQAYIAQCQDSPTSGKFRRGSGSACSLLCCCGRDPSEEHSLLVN
#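 In this qHTS format, compounds were pin-transferred onto Ca8-dye-loaded TRPML1-DL cells induced with Tet overnight, and intracellular Ca2+ fluorescence was recorded kinetically for 110 s after a 10 s baseline. A subsequent 4uM final 54-4 (EC80) addition followed by a second 110 s read served as the antagonist phase.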
# TRPML1 inh = inhibitors of human TRPML1 channel. TRPML1-inducible cells, Ca2+ dye fluorescence, FDSS; hits give low values; inhibition of EC80 agonist-evoked calcium signal. activity change, negative = inhibition, % (concentration not given with the values). hit rate 0.02% among 390,000. AID 624415; in the data active means activity change below about -50%; inconclusive means about -30% to -50%; inactive means above about -30%;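 also: stimulus is agonist 54-4 at its EC80 concentration; % is scaled to controls: 0 for no effect and ±100 for the full control effect; compound concentration not given in the record; the text of the record puts the active cut at -80%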
#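 Calcium fluorescence in TRPML1-DL cells induced overnight with Tet: a 110 s read after compound pin addition, then a 110 s antagonist read after challenge with 54-4 at 4 uM final (EC80).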
# gsp agonist = activates gsp, the McCune-Albright syndrome mutation; gsp mutant cells, cAMP HTRF, 30 min; control for the full effect not named in the record; Potency, µM (top dose mostly 76.9 µM), for the others: at the top dose activation (cAMP increase), hits mostly activators; hit rate 0.13% among 340,000; active = well fitted activation curve with a large enough effect; inconclusive = small, poorly fitted or top-dose-only effect, or another doubt; inactive = no such curve, though single readings can be large or run the other way; cell line not stated here;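 also: phosphodiesterase inhibitor Ro 20-1724 added with compounds to block cAMP breakdown; potency is read from the fitted curve at half-maximal effect; nearly all actives have a fitted effect of over 60% in size; about a fifth of the inactives were tested at one dose only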
#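 Cells stably selected in G418 were plated at 2000/well, grown 16-24 hr, then given compounds in DMSO with the PDE inhibitor […] (300 uM solution added) for 30 min at 37C; cAMP was read by HTRF.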
# Menin-MLL FL inh = inhibitors of human menin-MLL interaction, wild-type MLL peptide | Fluorescence polarization, fluorescein-MLL peptide displacement from menin | FP activity change, % at 61.4 µM | 290,000 tested, under 10 active | AID 1766; inconclusive = falling polarisation curve, or a change in total fluorescence; inactive = total fluorescence flat and polarisation flat or rising; no compound was filed as active; the % refers to the polarisation; negative = inhibition;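 also: % of control where 0% means no effect; inhibitors lower the polarisation; unlabelled MLL peptide was the positive control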
# Active calls of the source: *; u = inconclusive; x = not tested or not shown; & = joins results of further samples; [ ] = another dose, or the depositor's remark.
SMILES,gsp antagonist,ClpP mod,TRPML1 agonist,TRPML1 inh,gsp agonist,Menin-MLL FL inh
CCCOC(=O)c1ccc(NC(=O)C2C3C=CC(O3)C2C(=O)O)cc1 (stereo not drawn),6.3%,-1.1%,-0.1,-23.2,-10.4%,0.9
O=C(CN1C(=O)c2ccccc2S1(=O)=O)Nc1ccccn1,-0.9%,x,-0.5,-0.3,1.8%[15.4 µM],x
Cc1oc2ncn(CC(C)C)c(=O)c2c1C(=O)NCCCN1CCCCC1C (stereo not drawn),x,-0.5%,-0.9,22.4,x,x
NC(=O)N1CCCC1C(=O)Nc1ccc(Cl)c(Cl)c1 (stereo not drawn),-21.5%,-1.8%,1.3,16.7,26.5%,-0.4
O=S(=O)(/C=C/c1ccccc1)Nc1ccc(N2CCOCC2)cc1,-12.4%,-0.2%,-1.0,0.2,-1.6%,-1.5
O=C(Nc1cccc(Cl)c1)N1N=CCC1c1ccccc1 (stereo not drawn),-4.1%,x,0.7,6.2,-1.9%[15.4 µM],-0.2
Cc1cc(S(=O)(=O)N(Cc2cccs2)Cc2ccccc2F)ccc1-n1cnnn1,-4.1%,-1.0%,5.9,27.9,15.3%,1.6
COc1cccc(/C=N\NC(=O)c2cc(OCC(F)(F)F)ccc2OCC(F)(F)F)c1,-8.1%,24.9%,2.8,16.7,-15.9%,-1.8
N=C(N)N=Nc1c(O)[nH]c2ccc(Br)cc12,-19.4%,x,-0.5,-16.4,-48.4%[inhibitor],2.1
O=C(c1ccccc1Sc1c(Cl)cccc1[N+](=O)[O-])N1CCOCC1,u,-1.9%,-0.6,9.7,-34.7%[inhibitor],4.1
COC(=O)c1ccc(-c2csc(NC(=O)c3ccc(S(=O)(=O)N4CCc5ccccc5C4)cc3)n2)cc1,5.7%,-4.4%,-0.3,-2.8,-5.7%,3.4
Cc1cccc(-n2c(O)c(/C=N/NC(=O)c3ccccc3Cl)c3ccccc3c2=O)n1,-15.5%,-10.8%,3.2,10.8,10.2%[15.4 µM],25.3
CCCOc1ccc(/C=N/Nc2ccccc2[N+](=O)[O-])c(OCCC)c1,10.7%,-2.2%,-0.1,-2.1,2.3%,-1.3
Cc1ccc(NC(=O)c2cc(S(=O)(=O)N3CCOCC3)cs2)cc1,-5.7%,0.8%,-0.6,5.1,-1.1%,4.8
CCn1cc([N+](=O)[O-])c(C(=O)NCc2ccc3c(c2)OCO3)n1,9.2%,x,-0.1,18.2,25.1%,-2.1
CCn1nc(C)c(CCN(C)C(=O)Nc2cc(OC)c(OC)c(OC)c2)c1C,x,-1.1%,-1.0,11.0,x,x
NC(=O)c1ccccc1NC(=O)COC(=O)C1(c2ccccc2)CC1,5.1%,-7.0%,0.0,2.1,-2.0%,x
C=C(C)C1CC=C(C)/C(=N/NC(=O)COc2ccc(C)cc2)C1 (stereo not drawn),4.3%,-0.7%,0.8,5.1,5.9%,1.4
Cc1ccc(-c2nc3cc(NS(=O)(=O)c4ccc(C)cc4)ccc3o2)cc1,-7.3%,u,2.1,6.9,u,-0.5
CCN1C(=O)[C@H]2[C@@H](c3ccc(-c4ccc(Cl)c(Cl)c4)c(OC)c3)N[C@@](C)(C(=O)OC)[C@H]2C1=O,u,u,0.3,-1.3,-13.5%,x
O=C(NCc1cccnc1)C1CCN(S(=O)(=O)c2cc([N+](=O)[O-])ccc2Cl)CC1,2.3%,13.9%,0.8,-19.1,11.2%[15.4 µM],x
CC1CCCC(C)N1CC(O)COCC1COc2ccccc2O1 (stereo not drawn),6.3%,-25.5%,1.5,-6.1,6.1%,2.7
O=C(N/N=C/C1CCCCC1)c1ccccn1,4.9%,2.0%,-0.3,-7.9,23.6%,6.6
O=C(Nc1ccc(-c2n[nH]c(=S)o2)cc1)c1ccccc1Cl,-14.2%,-3.7%,-0.8,29.7,-0.4%,3.3
Cc1cccc(S(=O)(=O)N(C)C[C@@H]2OCc3cnnn3CCCC(=O)N([C@H](C)CO)C[C@H]2C)c1,x,-0.9%,-0.1,-7.4,u,x
CCCCCC(=O)NC(=S)NNC(=O)c1ccc([N+](=O)[O-])cc1,u,0.5%,1.6,-10.4,-2.5%,-0.2
CC(=O)N1CCN(S(=O)(=O)c2cccc(C(=O)N(Cc3ccccc3)c3ccc(C)cc3)c2)CC1,-21.7%,2.3%,1.1,-1.9,13.4%[15.4 µM],x
COc1ccc(NC(=O)CCS(=O)(=O)c2cc3c4c(c2)CCN4C(=O)CC3)c(OC)c1,x,-1.0%,-1.2,-5.9,x,x
FC(F)(F)c1cc(-c2cccs2)nc(-n2cc(Cl)cn2)n1,-20.4%,31.6µM*,4.0,-8.9,-26.6%,4.2
CCOC(=O)Cn1nc(/C=C/c2ccc(C(C)C)cc2)ccc1=O,-13.1%,28.2µM*,0.3,4.0,-30.9%,5.9
N#Cc1ccc(N2CCN(C(=O)c3cccs3)CC2)c(F)c1,-8.9%,0.2%,0.2,-17.0,18.1%[15.4 µM],1.4
CCOC(=O)C1(Cc2ccccc2)CCCN(CCO)C1 (stereo not drawn),x,x,-0.4,7.7,-17.5%[15.4 µM],0.2
COC(=O)c1c(NC(=O)CCCOc2ccccc2)sc2c1CCC(C)C2 (stereo not drawn),x,u,3.7,-3.9,x,x
CCCc1nnc(SCc2ccc(OCC)cc2)n1N,8.7%,-7.6%,-0.6,-9.9,-21.7%,5.9
CCCn1c(CN2CCN(C(=O)c3ccco3)CC2)nc2cc(S(=O)(=O)N(C)C)ccc21,-2.0%,u,-0.5,-6.0,-31.1%[inhibitor],x
COc1cc(C(=S)N2CCOCC2)ccc1OC(=O)c1ccccc1C,-17.3%,-2.1%,-0.2,18.0,-2.0%,-0.9
COc1cc(OC)cc(-c2cc(N3C(=O)Nc4ccccc4N3O)n[nH]2)c1,3.1%,-1.1%,-0.6,-4.5,-20.0%,6.8
Nc1nc(N)c(S(=O)(=O)c2ccccc2)c(Nc2ccc(F)cc2)n1,x,-5.8%,1.8,-2.9,x,x
COc1cc(CN(C(=O)c2oc3ccccc3c2C)C2CCS(=O)(=O)C2)cc(OC)c1OC (stereo not drawn),x,0.0%,-0.6,-0.2,x,x
COc1ccc2oc(=O)c(C(=O)NCCc3c(C)[nH]c4c(Cl)cccc34)cc2c1,x,0.4%,1.2,-0.9,x,x
CCC(C)C(NC(=O)/C(=C\c1ccccc1)NC(=O)c1ccc(OC)cc1)C(=O)O (stereo not drawn),10.8%,x,-1.1,4.8,12.6%[15.4 µM],-0.8
O=C(CSc1nc2ccccc2s1)NNC(=S)Nc1ccccc1,6.5%,1.1%,1.7,17.9,-4.3%,2.5
CCOc1ccc(OCCCC(=O)NC2=NCCS2)cc1,4.6%,-2.0%,0.1,-6.4,-10.6%,-2.0
COc1ccc(NC(=O)/C(Cl)=C(/Cl)S(=O)Cc2ccccc2Cl)cn1 (stereo not drawn),8.1%,x,1.7,-5.5,-5.3%[15.4 µM],4.8
COc1ccc(N2CCN(c3ncnc4sc(C(=O)NCC5CCCO5)c(C)c34)CC2)cc1 (stereo not drawn),x,x,-0.8,5.0,-6.5%[15.4 µM],6.3
CCOC(=O)c1ccccc1NC(=O)CN(c1cc(C(F)(F)F)ccc1Cl)S(C)(=O)=O,x,-26.7%,-0.1,44.8,x,x
O=C(COc1ccc(C(=O)c2ccc(F)cc2)cc1)Nc1cccc(S(=O)(=O)N2CCOCC2)c1,-27.2%,12.4%,1.4,13.3,-27.1%,x
Cc1cc(N/C(=N/S(=O)(=O)c2cc(F)ccc2F)c2ccccc2)n(-c2ccccc2)n1,-10.2%,-2.2%,1.9,39.6,16.3%,0.2
Cc1nc2cc(-c3ccc(Cl)cc3)nn2c(C)c1CCC(=O)N1CCN(c2ccccc2)CC1,x,-2.9%,-0.1,-13.1,x,x
Cc1cccc(CCNC(=O)CCS(=O)(=O)c2cc3c(cc2Cl)NC(=O)CO3)c1,1.7%,-1.6%&1.3%,0.5&0.5,12.4&12.7,8.1%,x
Cn1nc(C(C)(C)C)c(NC(=O)c2cccs2)c1C(C)(C)C,21.0%,-0.7%,77.9*,-17.5,-10.0%[15.4 µM],2.2
CCN1CCN(c2ccc(NC(=O)c3ccc4c(c3)[nH]c(=O)n4Cc3ccc(F)cc3)cc2)CC1,10.5%,-11.3%,-0.2,-10.8,6.4%,0.5
CC1CCCCC1NS(=O)(=O)c1ccc(S(=O)(=O)N2CCCC2)cc1 (stereo not drawn),8.7%,0.8%,1.1,26.9,-0.6%,-0.5
COC(=O)c1cc(OC)c(OC)cc1NC(=O)Cc1cccs1,1.8%,x,0.0,-8.8,u,7.0
COC(=O)/C=C/c1ccc2c(c1)S(=O)(=O)N(c1cccc(OC)c1)[C@H]2CC(=O)OC,-9.1%,-4.6%&-4.3%,1.3&-0.6,0.1,x,x
Nc1nccnc1C(=O)OCC(=O)c1ccc[nH]1,7.5%,1.2%,0.5,3.9,8.9%[15.4 µM],x
O=S(=O)(Nc1cccc(-c2cn3ccsc3n2)c1)c1ccc(F)cc1,2.9%,-0.7%,0.5,9.8,5.9%,3.0
CCOc1ccc(NC(=O)C(=O)NCCc2csc(-c3ccc(F)cc3)n2)cc1,x,-0.6%,0.7,6.6,x,x
CCN(CC(=O)Nc1c(F)cccc1F)C(=O)COc1ccc2c(C)cc(=O)oc2c1,-4.7%,-1.3%,-0.2,1.7,-13.9%[15.4 µM],-0.5
COCCCNC(=O)C[C@H]1C[C@H](C(=O)N(C(C)C)C(C)C)[C@@]2(C)c3[nH]c4ccc(Cl)cc4c3CCN2C1=O,-7.9%,2.5%,-0.4,3.5,x,x

# Later entries
SMILES,gsp antagonist,ClpP mod,TRPML1 agonist,TRPML1 inh,gsp agonist,Menin-MLL FL inh
Nc1nccnc1C(=O)OCC(=O)N1CCN(S(=O)(=O)c2ccc(Cl)cc2)CC1,15.2%,-5.8%,0.4,-2.5,-35.0%[inhibitor],x
CCOC(=O)c1c(C)[nH]c(C)c1S(=O)(=O)NCC(=O)Nc1ccccn1,6.4%,2.7%,-0.8,-9.4,1.3%,-3.0
CC1=CC(C)(C)N2C(=O)C3(C(C#N)=C(N)OC4=C3C(=O)CCC4)c3c(C)c(C)cc1c32 (stereo not drawn),3.8%,-1.0%,-0.2,-15.5,17.8%,3.3
O=C(NCCc1ccncc1)C12CC3CC(CC(C3)C1)C2,-32.8%,-0.1%,-0.3,17.7,-9.8%,0.8
CC1=C(C(=O)NCCN2CCOCC2)C2(CCC(C)CC2)OC1=O (stereo not drawn),12.6%,-1.0%,-0.1,-11.9,-39.9%,3.0
Cc1ccc2nc(C)cc(C(=O)NC3CCCCCC3)c2c1,-10.8%,u,2.6,10.1,-12.0%,x
Cc1cccc(OCCSc2nc3ccccc3n2CC(=O)N2CCCCC2)c1C,x,-4.2%,2.0,22.2,x,x

# Source: PubChem BioAssay
